Screening data from PubChem.
Menin-MLL FL inh: inhibitors of human menin-MLL interaction, wild-type MLL peptide; Fluorescence polarization, fluorescein-MLL peptide displacement from menin; FP activity change, % at 61.4 µM; 290,000 tested, under 10 active; inconclusive = falling polarisation curve, or a change in total fluorescence; inactive = total fluorescence flat and polarisation flat or rising; no compound was filed as active; the % refers to the polarisation; negative = inhibition;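 note: % of control where 0% means no effect; inhibitors lower the polarisation; unlabelled MLL peptide was the positive control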
TRPML1 agonist: human mucolipin-1 channel agonism; Q9GZU1; TRPML1-expressing cells, Ca2+ dye fluorescence, FDSS; host cell line not named in the record; reference of the full effect not given here; activation, % (no concentration beside the values); hit rate 0.12% among 410,000; in the data active = activation above about 50%; inconclusive = about 30% to 50%; inactive = below about 30%; note: 0% is about no effect; the text of the record puts the active cut at 80%
Target sequence (Q9GZU1 whole entry, looked up): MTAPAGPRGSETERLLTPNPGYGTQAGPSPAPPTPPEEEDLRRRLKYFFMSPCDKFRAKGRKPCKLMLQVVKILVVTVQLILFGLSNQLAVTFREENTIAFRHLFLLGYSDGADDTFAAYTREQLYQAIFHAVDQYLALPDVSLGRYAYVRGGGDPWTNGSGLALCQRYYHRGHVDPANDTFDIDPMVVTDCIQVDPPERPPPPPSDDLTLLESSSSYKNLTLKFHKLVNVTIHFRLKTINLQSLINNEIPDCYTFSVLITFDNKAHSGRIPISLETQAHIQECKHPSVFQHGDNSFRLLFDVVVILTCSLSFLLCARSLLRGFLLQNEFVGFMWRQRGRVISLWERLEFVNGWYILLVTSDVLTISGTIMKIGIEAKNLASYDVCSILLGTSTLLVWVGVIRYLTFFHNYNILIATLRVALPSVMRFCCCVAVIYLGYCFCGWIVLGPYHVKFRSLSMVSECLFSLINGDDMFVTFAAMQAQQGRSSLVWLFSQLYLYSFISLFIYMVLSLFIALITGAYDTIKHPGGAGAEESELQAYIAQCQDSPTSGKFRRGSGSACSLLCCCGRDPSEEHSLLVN
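Cells: TRPML1-DL, 1X Tet inducer, ~16 h at 37 degrees C/5% CO2. Dye: ABD Ca8 no-wash + quencher, 45-90 min RT. Read: 10 s baseline, compound add, 110 s agonist phase; 54-4 EC80 (4uM final), 110 s antagonist phase.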
gsp antag: antagonists of gsp mutant (McCune-Albright syndrome) | gsp-mutant cells, cAMP HTRF, 30 min; control for the full effect not named in the record | Potency, µM (top dose mostly 76.9 µM), for the others: top-dose activity change, negative = inhibition, usual class: inhibitors | hit rate 0.4% among 340,000; active = falling curve of any shape with a large fitted effect; inconclusive = falling curve, mostly with a smaller effect; inactive = flat or rising curve; cell line not stated here;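 note: intracellular cAMP measured with PDE inhibitor Ro 20-1724 present during compound exposure; potency is the fitted concentration of half-maximal effect; % is set by controls: 0 for no effect and ±100 for the full control effect; nearly all actives have a fitted effect of over 65% in size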
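HTRF cAMP read-out (cAMP-d2 plus anti-cAMP antibody-K in lysis buffer, 30 min RT). Before lysis, cells are exposed to compounds with […] for 30 min at 37C in DPBS containing Ca/Mg, BSA and Tween 20.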
gsp agonist: agonists of gsp mutant (McCune-Albright syndrome). gsp mutant cells, cAMP HTRF, 30 min; control for the full effect not named in the record. Potency, µM (doses to about 76.9 µM), inactives show top-dose activation (cAMP increase), actives largely listed as activators. hit rate 0.13% among 340,000; active = well fitted activation curve with a large enough effect; inconclusive = small, poorly fitted or top-dose-only effect, or another doubt; inactive = no such curve, though single readings can be large or run the other way; cell line not stated here;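 note: phosphodiesterase inhibitor Ro 20-1724 added with compounds to block cAMP breakdown; potency is the fitted concentration of half-maximal effect; nearly all actives have a fitted effect of over 60% in size; about a fifth of the inactives were tested at one dose only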
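Cells stably selected in G418 were plated at 2000/well, grown 16-24 hr, then given compounds in DMSO with the PDE inhibitor […] (300 uM solution added) for 30 min at 37C; cAMP was read by HTRF.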
TRPML1 inh: blocks the human TRPML1 channel. Q9GZU1. TRPML1-inducible cells, Ca2+ dye fluorescence, FDSS; hits give low values; inhibition of EC80 agonist-evoked calcium signal. activity change, negative = inhibition, % (no concentration beside the values). hit rate 0.02% among 390,000. AID 624415; in the data active means activity change below about -50%; inconclusive means about -30% to -50%; inactive means above about -30%;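 note: stimulus is agonist 54-4 at its EC80 concentration; % is set by controls: 0 for no effect and ±100 for the full control effect; compound concentration not given in the record; the text of the record puts the active cut at -80%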
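TRPML1-DL cells, Tet-induced overnight (~16 h, 37 °C) at 1,500 cells/well, were loaded with Ca8 no-wash dye plus quencher for 45-90 min at room temperature. Compounds were pinned during FDSS kinetic reading; agonist 54-4 at EC80 (4 uM final) then added.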
ClpP mod: qHTS Assay for Activators of ClpP; Potency, µM (titrated, usually from 57.5 µM), without a hit: top-dose activity change, negative = active; AID 651965, 2013; purified B. subtilis ClpP, FRET peptide cleavage, 20 min; hit rate 1.9% among 340,000; active = well fitted falling curve with a large enough effect; inconclusive = small, poorly fitted or top-dose-only effect; inactive = no such curve, though single readings can be large or run the other way; note: potency is the fitted concentration of half-maximal effect; the source files actives as falling curves though it sought activators and does not explain the sign; nearly all actives have a fitted effect of over 65% in size; many hits overshoot -100%
Target sequence (P80244 whole entry, looked up): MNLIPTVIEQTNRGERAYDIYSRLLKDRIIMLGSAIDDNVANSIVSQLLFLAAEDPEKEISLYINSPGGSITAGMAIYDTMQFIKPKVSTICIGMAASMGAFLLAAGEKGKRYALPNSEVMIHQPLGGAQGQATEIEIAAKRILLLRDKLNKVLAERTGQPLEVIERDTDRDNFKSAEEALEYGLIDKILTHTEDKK
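Purified B. subtilis ClpP, 10 microg/mL final in Tris/HCl pH8 with KCl, BSA, glycerol and Tween-20, cleaved an Abz/nitrotyrosine-quenched decapeptide. Fluorescence (ex 320, em 430) was read at 0 and 20 min at room temperature. Delta was normalized to 5.8 microM ADEP and DMSO/no-enzyme controls.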
An asterisk follows results filed as active; ? = inconclusive; / = no result given; & = joins results of further samples; [ ] = remark or other dose. No enrichment for hits; about 2.1% have a hit in one of these screens.

Sequence of screens: Menin-MLL FL inh | TRPML1 agonist | gsp antag | gsp agonist | TRPML1 inh | ClpP mod
(1) Cc1c(C(=O)O)c(=S)sn1CCOc1ccccc1
  -0.9 | -0.5 | -3% | -2% | -13 | -1.7%
(2) O=C(Cc1ccc(Cl)cc1)c1ccc(O)cc1
  6.3 | 1.6 | -5% | -37%[inhibitor] | -2 | -6.3%
(3) CCN1CCN(c2ccc(S(=O)(=O)N3CCOCC3)cc2NC(=O)C(C)Oc2ccc(Cl)cc2)CC1 (configuration not stated)
  / | 0.9 | 1% | -2%[15.4 µM] | 0 | /
(4) O=S(=O)(c1ccccc1)N1CCN(C/C=C/c2ccccc2)CC1
  0.5 | 1.1 | -10% | 8% | 12 | 0.5%
(5) CCOc1ccc(C(=O)COC(=O)CC)cc1
  2.9 | -0.6 | 8% | ? | 19 | -1.8%
(6) O=C(NC1CCCc2ccccc21)c1cncc(Br)c1 (configuration not stated)
  2.9 | 1.4 | 3% | 8% | 6 | -1.1%
(7) CCN(CC)C(=O)CNC(=O)c1nn(-c2ccc(OC)c(Cl)c2)c(=O)c2ccccc12
  1.6 | -1.3 | -3% | -2%[15.4 µM] | -12 | -0.2%
(8) COc1ccccc1Oc1c(C)oc2c(CN(C)C)c(O)ccc2c1=O
  -0.7 | -1.4 | 11% | ? | -9 | 5.7%
(9) CSc1ccc(/C=C/C(=O)NC(=O)c2ccccc2O)cc1
  -1.9 | 3.2 | -25% | 9% | -1 | -5.0%
(10) Cc1ccc(-n2c(C)cc(/C=N/NC(=O)c3ccc(CN4CCOCC4)cc3)c2C)cc1
  2.0 | 0.1 | 7% | -13% | 7 | -3.9%
(11) Cc1c(C(=O)Nc2ccc(N3CCOCC3)cc2)cccc1[N+](=O)[O-]
  -0.1 | -0.6 | -60% | 18%[15.4 µM] | 17 | /
(12) COc1ccc(NC(=O)/C(C#N)=C/c2ccc(C)o2)cc1
  / | -1.0 | / | / | -8 | -0.2%
(13) O=C(Nc1ccccn1)Nc1ccccc1[N+](=O)[O-]
  -3.8 | 0.0 | 3% | -1%[15.4 µM] | -8 | /
(14) C[C@H]1CN(c2ccccc2)C(=O)[C@@H]1CC(=O)Nc1ccc(Br)cc1
  / | 1.5 | / | -25% | 5 | 1.2%
(15) Cc1ccc(OCC(=O)NCCO)c(Br)c1
  -1.0 | -0.7 | 4% | 5%[15.4 µM] | 1 | /
(16) O=C(CNS(=O)(=O)c1ccc(F)cc1)N1CCN(c2ccccc2)CC1
  -0.2 | 0.2 | -17% | -45%[inhibitor] | -3 | -0.4%
(17) COc1ccc(CCNC(=O)c2c(C)nn(CC(C)C)c2Cl)cc1
  / | -0.4 | -6% | -21% | 2 | -3.5%
(18) CSc1cccc(NS(=O)(=O)c2cn(C)c(C)n2)c1
  / | 0.3 | / | / | -4 | -0.9%
(19) CN(C)C(CNC(=O)CCCOc1ccccc1)c1ccco1 (configuration not stated)
  1.3 | -0.3 | 4% | 9% | -12 | 1.9%
(20) Cc1ccc2[nH]c3c(=O)n(CC(=O)NCc4ccco4)ncc3c2c1
  3.5 | -1.3&2.3 | 5% | 21% | -9&21 | -12%&-18%
(21) COc1ccc(N2CCN(C(=O)CCC(=O)N3Cc4ccccc4Oc4ncccc43)CC2)cc1
  -2.1 | -0.2 | -11% | 0% | -3 | /
(22) Cc1ccccc1CSc1ncc(Cl)c(C(=O)Nc2nc3ccc(F)cc3s2)n1
  / | -0.5 | / | / | 12 | -3.6%
(23) CCCNC(=O)NCCc1c(C)[nH]c2ccccc12
  -8.2 | -0.8 | 5% | ? | -7 | -19%
(24) COc1cccc(C(=O)Nc2ccc(-c3nc4ccc(C)cc4s3)cc2)c1OC
  / | 0.2 | / | / | 8 | -63%
(25) CCOc1ccc(CCNC(=O)c2nnc(Cc3ccc(Cl)cc3Cl)o2)cc1OCC
  / | 0.5 | / | / | 3 | 2.2%
(26) CCOC(=O)c1c(-c2ccc(C)cc2)csc1NC(=O)c1ccc(N2C(=O)CCC2=O)cc1
  2.3 | 0.1 | -12% | -2% | -3 | 117%
(27) O=C(NCCCN1CCCCC1)c1ccc2c(c1)NC(=O)C(N1CCOCC1)S2 (configuration not stated)
  0.2 | 0.3 | 9% | -15% | -6 | -1.8%
(28) CC(=O)NC(CC(=O)Nc1nc(-c2ccccc2)c(C(C)=O)s1)c1ccccc1 (configuration not stated)
  9.3 | 0.1 | 3% | -52%[15.4 µM] | -11 | /
(29) CNC(=O)c1ccc(N(Cc2ccccc2)S(C)(=O)=O)cc1
  -2.8 | -0.3 | 19% | -3%[15.4 µM] | -11 | -0.4%
(30) COc1ccc(NC(=O)COC(=O)C23CC4CC(CC(NC(C)=O)(C4)C2)C3)cc1S(=O)(=O)N1CCOCC1
  / | -0.1 | 8% | 2%[15.4 µM] | 14 | 0.8%
(31) Cc1nnn(-c2nonc2N)c1C(=O)N/N=C/c1ccccc1O
  4.5 | 0.3 | 7% | -2% | 0 | -3.0%
(32) Cc1[nH]n(-c2ccccc2)c(=O)c1C(=O)c1cccc(F)c1
  -0.1 | -0.1 | 1% | -10% | -3 | -0.1%
(33) Cc1ccc2c(c1)N(C(=O)Nc1cccc(C)c1C)CCO2
  / | -0.8 | / | / | -11 | 0.1%
(34) COc1ccc(-c2cc(NCc3ccccn3)n3ncnc3n2)cc1
  -7.6 | -0.6 | -17% | -3% | -3 | 4.5%
(35) CC1CN(C(=O)COC(=O)c2ccc(Cl)c(S(=O)(=O)N3CCCCC3)c2)CC(C)O1 (configuration not stated)
  0.1 | 0.7 | -15% | 6% | -13 | /
(36) CCSc1nc2ccccc2[nH]1
  -2.3&0.2 | 2.0&0.2 | 0%&2% | -2%&-13% | 9&3 | 1.2%&-2.6%
(37) COC(=O)C1Cc2c([nH]c3ccccc23)CN1C(C)=O (configuration not stated)
  5.8 | -0.1 | -2% | 0% | -6 | /
(38) O=C(NCc1ccc(-c2nc3ccccc3s2)cc1)c1cc2ccccc2o1
  -0.1 | 0.3 | 13% | 21% | 60 | -9.1%
(39) CC(C)N1C(=O)NC2(c3ccccc3)N(C)C(=O)N(C)C12c1ccccc1 (configuration not stated)
  3.6 | -0.3 | -8% | 4% | -23 | -0.8%
(40) COc1ccccc1NC(=O)NC(=O)c1ccccc1
  3.2 | -0.6 | 7% | -43%[inhibitor] | 17 | /

Arranged by formula weight (smallest number first): part of the list above
Sequence of screens: Menin-MLL FL inh | TRPML1 agonist | gsp antag | gsp agonist | TRPML1 inh | ClpP mod
(23) CCCNC(=O)NCCc1c(C)[nH]c2ccccc12
  -8.2 | -0.8 | 5% | ? | -7 | -19%
(28) CC(=O)NC(CC(=O)Nc1nc(-c2ccccc2)c(C(C)=O)s1)c1ccccc1 (configuration not stated)
  9.3 | 0.1 | 3% | -52%[15.4 µM] | -11 | /
(26) CCOC(=O)c1c(-c2ccc(C)cc2)csc1NC(=O)c1ccc(N2C(=O)CCC2=O)cc1
  2.3 | 0.1 | -12% | -2% | -3 | 117%
(25) CCOc1ccc(CCNC(=O)c2nnc(Cc3ccc(Cl)cc3Cl)o2)cc1OCC
  / | 0.5 | / | / | 3 | 2.2%
(30) COc1ccc(NC(=O)COC(=O)C23CC4CC(CC(NC(C)=O)(C4)C2)C3)cc1S(=O)(=O)N1CCOCC1
  / | -0.1 | 8% | 2%[15.4 µM] | 14 | 0.8%

(listing goes on)
Sequence of screens: Menin-MLL FL inh | TRPML1 agonist | gsp antag | gsp agonist | TRPML1 inh | ClpP mod
(41) CCC(=O)N(C)CCc1cc2c(c(OC)c1/C=N/NC(=O)[C@H]1C[C@@H]1c1ccccc1)OCO2
  8.1 | -0.2 | ? | -20%[15.4 µM] | -1 | /
(42) COC(OC)C1(CCc2ccccc2)NC(=O)NC1=O (configuration not stated)
  / | -0.4 | 6% | -26% | 11 | /
(43) CCc1nc(SCc2ccc(Cl)cc2)n[nH]1
  -1.5 | 3.1 | 6% | 0% | -10 | 0.1%
(44) O=C(O)c1cccc(Cn2c(Cl)c(/C=N/NC(=O)c3ccc(O)cc3)sc2=O)c1
  ? | 0.2 | -7% | -19%[15.4 µM] | -3 | /
(45) Cc1ccccc1CSc1nc2c([nH]c3ccccc32)c(=O)n1C
  / | 0.2 | / | / | -9 | -2.0%
(46) CCOC(=O)c1sc2nc(CN3CCCCC3)nc(Cl)c2c1C
  1.6 | -1.6 | 6% | 5%[15.4 µM] | 51 | -2.8%
(47) COc1ccc(C(=O)N/N=C(\C)CC(=O)Nc2ccc3ccccc3c2)c(OC)c1
  / | 2.1 | 3% | -8% | 22 | -3.2%
(48) N#Cc1cc([N+](=O)[O-])cnc1NCC(O)CO (configuration not stated)
  0.3 | 0.2 | 6% | -15% | 3 | -0.2%
(49) O=S(=O)(NCC(c1cccnc1)N1CCN(c2ccc(F)cc2)CC1)c1cccs1 (configuration not stated)
  1.4 | -0.5 | 6% | 15% | -1 | -0.9%
(50) N#Cc1c2n(cnc1=O)CCCCC2
  -1.1 | 0.1 | 9% | 0% | -10 | -1.5%
(51) COc1cccc(CC2(CO)CCN(Cc3cn(C)nc3C)CC2)c1
  2.3 | 0.3 | 2% | -5% | -19 | /
(52) COc1ccc(C(=O)NCc2ccc(-n3cccc3)cc2)cc1OC
  4.4 | 0.8 | -19% | ? | 2 | 1.6%
(53) Cn1c(=O)c2c(ncn2CC(=O)N2CCOCC2)n(C)c1=O
  0.7 | -0.4 | 2% | 21% | 20 | 32µM*
(54) CC1(C)CC2CC(C)(CN2S(=O)(=O)c2ccc(C(=O)Nc3ccc(S(=O)(=O)N4CCOCC4)cc3)cc2)C1 (configuration not stated)
  2.3 | 0.9 | 0% | -3%[15.4 µM] | -2 | /
(55) O=C(NCC1CCCCC1)c1cc([N+](=O)[O-])ccc1N1CCOCC1
  -1.4 | -1.2 | -11% | -1%[15.4 µM] | -7 | -0.6%
(56) CCOc1ccc(CCNC(=O)COC(=O)c2ccc(Br)o2)cc1OCC
  / | -0.3 | 4% | -2%[15.4 µM] | -12 | -1.1%
(57) COc1cccc(NC(=O)CSc2nc3ccsc3c(=O)n2-c2ccc(C(=O)O)cc2)c1
  0.5 | -0.4 | -5% | -1%[15.4 µM] | -10 | /
(58) NS(=O)(=O)c1cccc(NC(=O)c2cncc(Br)c2)c1
  0.0 | 0.3 | 4% | 1% | 18 | 0.3%
(59) COc1ccc(CNC(=O)N2CCN(c3ccccc3)CC2)cc1
  -0.8 | -0.2 | -10% | 3%[15.4 µM] | -13 | /
(60) CCOC(=O)c1cnc2c(F)ccc(F)c2c1Sc1ccccc1
  2.2 | 0.3 | 1% | ? | -7 | /
(61) Cc1cc(C)c(OCC(=O)OCC(=O)N2c3ccccc3CC2C)c(C)c1 (configuration not stated)
  / | 2.9 | 10% | 11%[15.4 µM] | -1 | /
